# FGF22 binding = FGF22 (human) thermal shift binding. actives 1.5% (n = 340,000). Q9HCT0. calls only at 9.99 µM. AID 651658. recombinant FGF22 thermal shift, SYPRO orange fluorescence; percent of sucrose octasulfate shift, DMSO zero;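 active = melting point raised past a set limit in the mean and every replicate; three in four hits are not shown here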
# Target sequence (Q9HCT0 whole entry, looked up): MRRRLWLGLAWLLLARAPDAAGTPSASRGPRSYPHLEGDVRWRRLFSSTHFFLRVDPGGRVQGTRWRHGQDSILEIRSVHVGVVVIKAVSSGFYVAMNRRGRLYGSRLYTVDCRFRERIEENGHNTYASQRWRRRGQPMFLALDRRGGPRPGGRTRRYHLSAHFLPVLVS
# MLL AF4-AF9 inh = blocks AF4 peptide binding to human AF9. P42568. AlphaScreen, biotin-AF4 peptide binding to FLAG-AF9. inhibition, % at 10 µM. actives 0.47% (n = 350,000). AID 651704;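 active = every replicate reaching a set inhibition limit, whatever the replicate mean, cut at about 25% in these data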;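 note: 0% = plate neutral control median and 100% = total signal loss; the record names both 10 and 1 µM as test concentration; the first replicate is given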
# Target sequence (P42568 whole entry, looked up): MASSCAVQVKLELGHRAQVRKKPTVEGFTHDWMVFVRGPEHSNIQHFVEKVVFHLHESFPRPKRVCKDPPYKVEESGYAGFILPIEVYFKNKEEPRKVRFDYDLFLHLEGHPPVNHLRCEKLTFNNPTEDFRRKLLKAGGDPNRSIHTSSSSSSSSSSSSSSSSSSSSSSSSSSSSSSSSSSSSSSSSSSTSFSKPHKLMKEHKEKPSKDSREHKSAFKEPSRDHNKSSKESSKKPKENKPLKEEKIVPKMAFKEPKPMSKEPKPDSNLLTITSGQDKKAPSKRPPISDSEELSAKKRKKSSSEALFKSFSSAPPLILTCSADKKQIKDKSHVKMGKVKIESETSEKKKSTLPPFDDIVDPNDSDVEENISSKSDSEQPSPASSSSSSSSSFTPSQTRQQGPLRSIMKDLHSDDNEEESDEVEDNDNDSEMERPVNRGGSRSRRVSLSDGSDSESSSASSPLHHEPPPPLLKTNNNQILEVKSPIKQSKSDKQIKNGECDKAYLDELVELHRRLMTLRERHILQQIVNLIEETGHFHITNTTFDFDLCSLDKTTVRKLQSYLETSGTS
# rRNA inh HTS = inhibitors of bacterial rRNA selective over humanized ribosomes; actives 1.6% (n = 350,000); AID 720706; E. coli WT GFP vs humanized-ribosome RFP mutants, fluorescence, 24 h; active compounds read low; DMSO median 0, no signal -100; GFP signal change (wild-type ribosome), % (concentration not given with the values);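 active = significant combined selectivity score with lowered wild-type GFP, culture density cut under 30%, mutant RFP and density less affected; inactive = any of these conditions unmet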; note: one replicate is shown; some compounds called inactive have numbers as strong as hits
# rRNA inh HTS OD600 = also measured in rRNA inh HTS; calls as there; OD600 change, %; measured here: OD600 growth;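 optical density of the mix in the first replicate; 0 = DMSO median and -100 = no signal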
# rRNA inh HTS RFP = also measured in rRNA inh HTS; calls as there; RFP signal change, %; measured here: RFP humanized mutant strains;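 first replicate; 0 = DMSO median and -100 = no signal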
# An asterisk follows results filed as active; i = inactive; x = no result given. Only part of the results is shown; count on the stated rates, not on these rows.
# Value order – FGF22 binding, MLL AF4-AF9 inh, rRNA inh HTS, rRNA inh HTS OD600, rRNA inh HTS RFP
Cc1noc(C)c1NC(=O)N(C)C[C@H]1Oc2ccc(NC(=O)C3CCCCC3)cc2CC(=O)N([C@H](C)CO)C[C@@H]1C
  i, -0.2, 3, 7, -2.6
COc1ccc(NC(=O)N(C)C[C@@H]2OCCCC[C@H](C)Oc3ccc(NS(C)(=O)=O)cc3C(=O)N([C@H](C)CO)C[C@H]2C)cc1
  i, -2.1, -1, 2, 0.6
O=C(c1ccc(F)cc1)N1C[C@@H]2[C@H](c3ccccc31)[C@@H](CO)N2C(=O)c1ccccc1
  i, -0.2, 0, 5, -0.5
O=C(C[C@H]1C[C@@H]2c3cc(NC(=O)C4CCC4)ccc3O[C@@H]2[C@@H](CO)O1)NCc1ccccn1
  i, -0.3, 6, 16, -2.2
Oc1ccc(C[C@H]2CN([C@@H](Cc3ccc(O)cc3)CN3CCC[C@@H]3CN3C(=S)NC[C@@H]3Cc3ccccc3)C(=S)N2CCc2ccccc2)cc1
  i, 2.1, 19, 16, 14
Cc1ccc(S(=O)(=O)Nc2cccc3c2O[C@H](CN(C)C(=O)Nc2c(C)noc2C)[C@@H](C)CN([C@@H](C)CO)C3=O)cc1
  i, -12, 2, 11, -1.9
O=C(NC1CCCCC1)N[C@@H]1CC[C@H](CC(=O)N2CCOCC2)O[C@@H]1CO
  i, -1.9, 0, 2, 0.1
Cc1noc(C)c1S(=O)(=O)N(C)C[C@H]1OCCCC[C@@H](C)Oc2ccc(NS(=O)(=O)c3cn(C)cn3)cc2C(=O)N([C@@H](C)CO)C[C@@H]1C
  i, -2.7, -1, -2, -2.7
C[C@@H]1CCCCO[C@H](CN(C)S(=O)(=O)c2ccc(Cl)cc2)[C@@H](C)CN([C@@H](C)CO)C(=O)c2cc(NC(=O)c3ccccc3)ccc2O1
  i, -0.7, 0, 5, -1.3
CC=Cc1ccc2n(c1=O)C[C@H]1[C@H](CO)[C@@H](C(=O)NC3Cc4ccccc4C3)N(CCC)[C@@H]21 (mixture of isomers)
  i, -3.7, -5, -2, 3.5
O=C(NCCc1cccs1)Nc1ccc2nc([C@@H]3O[C@H](CO)[C@@H](O)[C@H]3O)[nH]c2c1
  i, -9.4, 2, 6, -5.7
CN(C)Cc1cn(CC[C@@H]2CC[C@H](NC(=O)Nc3ccc4c(c3)OCO4)[C@@H](CO)O2)nn1
  i, -0.1, 0, 3, 1.4
CCOC(=O)C(=O)N(C)c1c(CC)nc2c(OCc3cccc(OC)c3)cccn12
  i, -2.3, 11, 14, 2.4
O=C(CN1CCOCC1)NCC[C@H]1CC[C@@H](NC(=O)Nc2ccccc2)[C@H](CO)O1
  i, 2.6, 8, 2, -0.4
CC(C)NC(=O)N(C)C[C@@H]1Oc2cc(C#C[C@H](C)O)ccc2S(=O)(=O)N([C@@H](C)CO)C[C@@H]1C
  i, -3.3, 0, -1, -0.5

# (cont.)
# Value order – FGF22 binding, MLL AF4-AF9 inh, rRNA inh HTS, rRNA inh HTS OD600, rRNA inh HTS RFP
C[C@H]1CN([C@@H](C)CO)C(=O)c2cccc(NS(C)(=O)=O)c2O[C@@H]1CN(C)Cc1ccc(C(F)(F)F)cc1
  i, -2.3, -2, -2, 0.6
O=C(Nc1ccc2c(c1)[C@@H]1C[C@H](CC(=O)N3CCOCC3)O[C@@H](CO)[C@@H]1O2)c1cccnc1
  i, 4.4, 0, -7, -5.0
Cc1ccccc1S(=O)(=O)NC(=O)C1(C)CCN1C(=O)C(C)(C)c1ccccc1 (configuration not stated)
  i, -3.2, -3, 4, -2.6
C/C=C/c1ccc([C@H]2[C@H](CO)N3CCCCN(S(=O)(=O)c4ccc(OC)cc4)C[C@@H]23)cc1
  i, 4.3, -39, -72, 0.2
CCCC(=O)Nc1ccc2c(c1)OC[C@@H](C)N(Cc1ccc(-c3ccccn3)cc1)C[C@@H](C)[C@@H](OC)CN(C)C2=O
  i, 0.5, 1, -2, -2.1
O=C(NC[C@H]1[C@@H](c2ccccc2)[C@@H](CO)N1CC1CCCC1)c1ccncc1
  i, 0.9, -1, 6, -0.6
COc1ccc(NC(=O)N(C)C[C@@H]2OCCCC[C@H](C)Oc3ccc(NC(=O)c4ccccc4)cc3C(=O)N([C@@H](C)CO)C[C@@H]2C)cc1
  i, -2.1, -4, 2, -0.3
C[C@H]1CN([C@@H](C)CO)C(=O)c2cc(NC(=O)CCN3CCOCC3)ccc2O[C@H]1CN(C)S(=O)(=O)c1ccc(F)cc1
  i, -0.2, 4, 3, -1.6
C[C@H]1CN([C@@H](C)CO)C(=O)c2cccc(N(C)C)c2O[C@H]1CN(C)S(=O)(=O)c1ccc(F)cc1
  i, -1.0, 0, 2, -0.5
CC(=O)N1[C@@H]2c3ccc(-c4cncnc4)c(=O)n3C[C@@H]2[C@@H](CO)[C@@H]1C(=O)NCc1ccccc1Cl
  i, -1.0, 1, 7, 0.4
C[C@@H]1CCCCO[C@@H](CN(C)Cc2ccc(Cl)c(Cl)c2)[C@H](C)CN([C@@H](C)CO)C(=O)c2cc(NS(C)(=O)=O)ccc2O1
  i, 6.5, 4, -49, 24
C/C=C/c1ccc2c(c1)O[C@H](CN(C)C(=O)NC(C)C)[C@@H](C)CN([C@H](C)CO)S2(=O)=O
  i, 1.0, 0, -5, 0.9
COc1ccc(NC(=O)Nc2ccc3c(c2)CC(=O)N([C@H](C)CO)C[C@H](C)[C@@H](CN(C)C(=O)Nc2ccc(F)cc2)O3)cc1
  i, -1.3, 4, 12, -1.4
COc1ccc(NC(=O)N[C@H]2CC[C@H](CCNS(=O)(=O)c3cccc(Cl)c3)O[C@@H]2CO)cc1
  i, 3.2, -9, -6, 3.0
OC(Cc1ccnc2ccccc12)C(Cl)(Cl)Cl (configuration not stated)
  x, -3.7, -19, -47, -4.6

# Going on with the list:
Structure,FGF22 binding,MLL AF4-AF9 inh,rRNA inh HTS,rRNA inh HTS OD600,rRNA inh HTS RFP
CC(=NN=C(C)c1ccc(O)cc1)c1ccc(O)cc1,i,0.1,5,3,0.1
C[C@H](CO)N1C[C@H](C)[C@@H](CN(C)CC2CCCCC2)Oc2c(NC(=O)Nc3ccc4c(c3)OCO4)cccc2C1=O,i,4.9,-7,-7,2.0
COCCNC(=O)C[C@@H]1C[C@@H]2c3cc(NS(=O)(=O)c4ccccc4)ccc3O[C@@H]2[C@@H](CO)O1,i,0.2,4,4,0.5
O=C([C@@H]1[C@@H](CO)[C@@H]2Cn3c(cccc3=O)[C@H]1N2CC1CCCC1)N1CCCCC1,i,1.8,8,1,-0.4
CN(C)CC#Cc1ccc([C@@H]2[C@@H](CO)N3CCCCN(C(=O)Nc4cc(F)ccc4F)C[C@@H]23)cc1,i,4.2,-1,2,3.2
O=C(NCc1nnnn1-c1ccc(Cl)cc1)c1ccc([N+](=O)[O-])o1,i,-4.7,-23*,2.6*,-4.8*
C[C@@H]1CN([C@H](C)CO)C(=O)c2cc(-c3ccncc3)cnc2O[C@@H]1CN(C)C(=O)c1ccc(F)cc1,i,-3.9,0,-4,-0.7
CN(C[C@@H]1[C@@H](c2ccccc2)[C@H](CO)N1C(=O)C1CCC1)C(=O)c1ccccn1,i,-3.5,1,-3,1.8
O=C(C[C@H]1CC[C@H]2[C@@H](COC[C@@H](O)CN2C(=O)Nc2cc(Cl)cc(Cl)c2)O1)N1CCCCC1,i,1.8,-48,-55,3.5
CO[C@H]1CN(C)C(=O)c2ccc(NC(=O)C3CCCC3)cc2OC[C@H](C)N(CC2CC2)C[C@@H]1C,i,3.9,1,-6,-1.7
Oc1ccccc1C=NNc1nc2ccccc2s1,i,7.0,-7,-3,-3.1
OCC(CO)c1cnnc2ccccc12,i,-1.8,5,15,-2.8

# Next compounds.
Structure,FGF22 binding,MLL AF4-AF9 inh,rRNA inh HTS,rRNA inh HTS OD600,rRNA inh HTS RFP
CCc1nc2c(OCC(=O)C(C)(C)C)cccn2c1N(C)C(=O)C1CC1,i,0.2,4,12,-6.0
N#Cc1ccc(-c2ccc([C@@H]3[C@@H](CO)N4C(=O)CNC[C@@H]34)cc2)cc1,i,-3.1,0,1,-1.8
O=C(C[C@@H]1CC[C@@H](NC(=O)C2CCC2)[C@H](CO)O1)NCC1CC1,i,-6.4,0,-6,-0.1
CN1c2ccc(-c3ccc(F)cc3)cc2[C@@H]2[C@@H](CCN2C(=O)c2ccccn2)[C@H]1CO,i,-2.7,-19,-52,20
NS(=O)(=O)c1ccc(NC(=O)CSc2nnc(NC3CC3)s2)cc1,i,-0.9,6,6,-2.8
CCCNC(=O)C[C@@H]1CC[C@@H]2[C@H](COC[C@H](O)CN2C(=O)Nc2cccc(Cl)c2)O1,i,-2.3,-55,-81,-23
O=C(c1ccncc1)N1C[C@H]2[C@@H](c3ccccc31)[C@@H](CO)N2C(=O)Nc1cccc(F)c1,i,-3.3,4,10,-2.0
C[C@H]1CN([C@@H](C)CO)C(=O)c2cccc(NS(=O)(=O)c3cccs3)c2O[C@H]1CN(C)S(=O)(=O)c1ccccc1,i,-3.9,3,12,-1.7
CC(C)NC(=O)N(C)C[C@H]1Oc2ccc(NC(=O)Cc3cn(C)c4ccccc34)cc2CC(=O)N([C@@H](C)CO)C[C@@H]1C,i,-1.7,2,4,-0.7
CN(C)CC(=O)Nc1ccc2c(c1)[C@H]1C[C@@H](CC(=O)NCc3cccc(F)c3)O[C@H](CO)[C@H]1O2,i,1.3,-2,1,0.0
CO[C@@H]1CN(C)C(=O)c2ccc(NS(=O)(=O)c3ccccc3C)cc2OC[C@H](C)NC[C@H]1C,i,-3.4,-1,-6,-2.8
C[C@@H]1CN([C@H](C)CO)C(=O)c2cc(NC(=O)NC3CCCCC3)ccc2O[C@@H](C)CCCCO[C@H]1CN(C)Cc1ccc2c(c1)OCO2,i,4.6,3,-15,-2.9

# Additional records.
Structure,FGF22 binding,MLL AF4-AF9 inh,rRNA inh HTS,rRNA inh HTS OD600,rRNA inh HTS RFP
CC(C)(CNC(=O)c1cccc(S(=O)(=O)Nc2ccc(SC(F)F)cc2)c1)N1CCOCC1,i,1.3,-2,-8,4.9
CO[C@@H]1CN(C)C(=O)c2cc(NS(=O)(=O)c3ccccc3C)ccc2OC[C@H](C)N(S(C)(=O)=O)C[C@H]1C,i,-1.9,2,2,-0.8
C[C@@H]1CN([C@H](C)CO)C(=O)c2cc(-c3cccnc3)cnc2O[C@@H]1CN(C)C(=O)C1CC1,i,-2.4,9,15,-0.1
O=C(c1ccc(F)cc1)N1CCCCN2[C@H](CO)[C@H](c3ccc(C#CC4(O)CCCC4)cc3)[C@H]2C1,i,-2.7,-3,-2,1.5
O=C(c1ccccn1)N1CC[C@@H]2[C@H](CO)Nc3ccc(-c4ccccc4)cc3[C@@H]21,i,-6.0,-6,-7,1.6
COc1ccccc1NC(=O)N[C@H]1C=C[C@H](CC(=O)N[C@H](C)c2ccccc2)O[C@H]1CO,i,-2.0,-3,-2,-0.9
O=C(Nc1ccccc1F)N[C@H]1CC[C@@H](CCNC(=O)C2CCC2)O[C@H]1CO,i,-2.7,2,3,0.9
COCC(=O)Nc1ccc2c(c1)OC[C@@H](C)N(Cc1cocn1)C[C@@H](C)[C@@H](OC)CN(C)C2=O,i,-2.1,4,5,-3.6
CC(C)NC(=O)N[C@H]1CC[C@@H](CCNC(=O)C2CCC2)O[C@H]1CO,i,-0.2,1,1,-1.9
CCOC(=O)C1(C)CCN1C(=O)c1oc2ccccc2c1C (configuration not stated),i,-3.1,3,6,-1.2
C[C@@H]1CN([C@@H](C)CO)S(=O)(=O)c2ccc(C#Cc3cccc(F)c3)cc2O[C@@H]1CN(C)S(=O)(=O)c1ccccc1F,i,-3.1,6,11,-3.1
Cc1ccc(S(=O)(=O)NCC[C@H]2CC[C@@H](NC(=O)c3cnccn3)[C@@H](CO)O2)cc1,i,0.2,-1,0,-1.3
CC(C)C[C@H]1CNC(=O)C(=O)N1C[C@@H]1CCCN1C[C@H](Cc1ccccc1)N1C[C@H](Cc2ccccc2)N(CC2CCCCC2)C(=O)C1=O,i,3.6,8,-11,-4.0
C[C@@H]1CN([C@H](C)CO)C(=O)c2cc(NS(=O)(=O)c3ccc(F)cc3)ccc2O[C@@H](C)CCCCO[C@@H]1CN(C)Cc1ccncc1,i,-1.2,0,-14,-2.5

# Some of these compounds in order of count of non-hydrogen atoms, largest number first:
Structure,FGF22 binding,MLL AF4-AF9 inh,rRNA inh HTS,rRNA inh HTS OD600,rRNA inh HTS RFP
COCC(=O)Nc1ccc2c(c1)OC[C@@H](C)N(Cc1cocn1)C[C@@H](C)[C@@H](OC)CN(C)C2=O,i,-2.1,4,5,-3.6
CO[C@@H]1CN(C)C(=O)c2ccc(NS(=O)(=O)c3ccccc3C)cc2OC[C@H](C)NC[C@H]1C,i,-3.4,-1,-6,-2.8
O=C(NCCc1cccs1)Nc1ccc2nc([C@@H]3O[C@H](CO)[C@@H](O)[C@H]3O)[nH]c2c1,i,-9.4,2,6,-5.7
O=C(Nc1ccccc1F)N[C@H]1CC[C@@H](CCNC(=O)C2CCC2)O[C@H]1CO,i,-2.7,2,3,0.9
OC(Cc1ccnc2ccccc12)C(Cl)(Cl)Cl (configuration not stated),x,-3.7,-19,-47,-4.6

# Bioassay records deposited in PubChem BioAssay by Broad Institute.
